Screening data: PubChem, several laboratories
YopH PTP inh = inhibitors of Yersinia enterocolitica YopH tyrosine phosphatase; fluorescence Ex485/Em525; inhibition, %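 (about 10 µM by stock and volumes)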; 140,000 tested, 0.16% active; AID 898;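 active means inhibition of 50% or more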;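 further: controls were vehicle for no effect and minimum signal wells for full effect; inactives centre near -20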
RecA splice inh = blocks M. tuberculosis RecA intein splicing | P9WHJ3 | cell-free RecA intein splicing, fluorescence | inhibition, %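 (about 9 µM by stock and volumes)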 | 290,000 tested, 0.75% active; in the data active means inhibition above about 30%; inconclusive means no clear call, values can overlap the other calls;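 further: 0% = vehicle wells and 100% = reference inhibitor control wells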
Target sequence (P9WHJ3 whole entry, looked up, canonical isoform): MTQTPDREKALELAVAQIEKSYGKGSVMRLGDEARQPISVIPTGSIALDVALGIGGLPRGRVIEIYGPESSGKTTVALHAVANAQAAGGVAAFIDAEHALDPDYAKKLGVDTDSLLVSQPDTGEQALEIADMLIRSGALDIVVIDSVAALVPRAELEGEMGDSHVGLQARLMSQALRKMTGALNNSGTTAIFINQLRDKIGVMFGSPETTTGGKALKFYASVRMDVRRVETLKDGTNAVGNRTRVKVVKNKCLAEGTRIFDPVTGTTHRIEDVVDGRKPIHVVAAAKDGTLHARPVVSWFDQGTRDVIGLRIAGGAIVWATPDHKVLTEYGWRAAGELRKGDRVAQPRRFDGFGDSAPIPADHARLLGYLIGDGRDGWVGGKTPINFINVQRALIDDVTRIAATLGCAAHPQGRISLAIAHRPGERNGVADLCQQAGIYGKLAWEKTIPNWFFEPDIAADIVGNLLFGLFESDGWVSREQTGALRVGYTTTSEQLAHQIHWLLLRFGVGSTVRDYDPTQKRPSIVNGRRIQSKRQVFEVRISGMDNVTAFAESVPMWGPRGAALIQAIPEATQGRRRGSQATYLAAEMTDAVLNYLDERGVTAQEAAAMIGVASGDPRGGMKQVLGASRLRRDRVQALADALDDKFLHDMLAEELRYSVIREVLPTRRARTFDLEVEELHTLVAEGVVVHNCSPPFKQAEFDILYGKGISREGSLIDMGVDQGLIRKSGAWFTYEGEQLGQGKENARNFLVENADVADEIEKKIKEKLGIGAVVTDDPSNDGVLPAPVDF
Mtb H37Rv = M. tuberculosis H37Rv growth inhibitors, H37Rv strain (AID 1626); M. tuberculosis H37Rv growth inhibition; higher % means a stronger effect; one-dose inhibition, % at 10 µM; IC50 in µM for titrated hits; 220,000 tested, 0.95% active;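 active means confirmed in a dose series; inconclusive means inhibition above 80% but not taken into the dose series; inactive means below 80% or under 30% at every dose of the series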;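 further: bacteria incubated seven days before Alamar blue readout; 0% = bacteria only wells and 100% = bacteria with antibiotic wells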
Mtb betalactam = beta-lactam sensitization of Mtb H37Rv. M. tuberculosis H37Rv growth with meropenem, percent inhibition; hits of this screen are not shown here. inhibition, % at 25 µM. 330,000 tested, 0.27% active. AID 434955;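 active means about 74% or more and at least 40 points above the plate without the antibiotic, then above 30% in a dose series; inconclusive means first-round hits that could not be retested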;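 further: growth measured after seven days incubation then overnight dye step; 0% = bacteria only wells and 100% = bacteria with antibiotic; twin plates without the antibiotic show which effects depend on it; some results filed as inactive read as strong as hits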
Arbovirus anti = blocks arbovirus infection. AID 1251. inhibition, % at 10 µM. arbovirus infection cell-based antiviral screen. 200,000 tested, 0.37% active;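 active means inhibition from about 30%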;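 further: bluetongue infection of BSR cells; cell survival read as ATP light after 72 h; 0% = infected wells without compound and 100% = uninfected wells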
Arbovirus anti repeat = also measured in Arbovirus anti; calls as there; inhibition, %; measured here: 10K subset replicate screen; many hits read low in the repeat;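 first of two repeat runs on a subset; 0% = infected and 100% = uninfected wells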
* marks the source's active call; other numbers are inactive results; ? = inconclusive; · = not tested or not shown. Some of the compounds tested (hit frequency here may not be typical).

SMILES	YopH PTP inh	RecA splice inh	Mtb H37Rv	Mtb betalactam	Arbovirus anti	others
CCn1nnc(-c2ccccc2NC(=O)c2cc(OC)cc(OC)c2)n1	-39	0.8	0%	-2	-10
CSCCC(NC(=O)c1ccccc1Cl)C(=O)NNC(=O)c1ccccc1O (configuration not stated)	·	-3.2	·	1	·
CNC(=O)c1cccc(N2CCCC2=O)c1	-17	-3.0	-12%	-5	0
Cc1onc(-c2ccccc2)c1C(=O)NCc1ccccn1	53*	-1.9	2%	-5	8
CCC(=O)N1CCN(c2cc(NCC3CCCO3)c(F)cc2[N+](=O)[O-])CC1 (configuration not stated)	·	3.5	76%	-6	3
O=C(c1cc(-c2ccccc2O)on1)N1CCCC1	-42	-0.9	-1%	0	11	Arbovirus anti repeat=8
CC(NC(=O)Cn1nc(C(F)(F)F)c2c1CCC2)c1ccccc1 (configuration not stated)	19	4.1	8%	-12	-5
Cn1c(=O)c2c(ncn2CC(=O)OCc2ccccc2)n(C)c1=O	-51	4.1	-5%	-24	-3
Fc1cc(F)c(F)c(SCCc2ccncc2)c1F	-5	2.2	6%	2	5
CC/C(=N/NC(=O)c1ccc2c(c1)OCO2)c1ccccc1O	·	8.1	·	92	·
O=C(/C=C/c1ccco1)Nc1ccc(N2CCCC2)cc1	-7	-7.2	5%	3	-11
Cn1c(=O)c2c(ncn2CC(=O)NCc2cccnc2)n(C)c1=O	-49	-1.8	-8%	-9	0

Reprinted from the part before: 4 entries, then new ones.
SMILES	YopH PTP inh	RecA splice inh	Mtb H37Rv	Mtb betalactam	Arbovirus anti	others
Fc1cc(F)c(F)c(SCCc2ccncc2)c1F	-5	2.2	6%	2	5
CC/C(=N/NC(=O)c1ccc2c(c1)OCO2)c1ccccc1O	·	8.1	·	92	·
O=C(/C=C/c1ccco1)Nc1ccc(N2CCCC2)cc1	-7	-7.2	5%	3	-11
Cn1c(=O)c2c(ncn2CC(=O)NCc2cccnc2)n(C)c1=O	-49	-1.8	-8%	-9	0
COc1ccc(CCNS(=O)(=O)c2ccccc2)cc1OC	-24	6.9	0%	-6	1
CC(=O)c1cccc(NC(=O)N2CCCC2C(=O)NCCc2ccccc2)c1 (configuration not stated)	-21	-2.7	2%	-9	-4
CCOC(=O)C1=C(C)N(c2ccc(Cl)cc2)C(=O)NC1c1cccc([N+](=O)[O-])c1 (configuration not stated)	-25	7.9	7%	-2	10
N#CC(=C=[N-])c1nc2ccccc2nc1-[n+]1cccc(NC(=O)c2ccc(F)cc2)c1	·	1.2	0%	0	·
COCCNC(=O)c1cccc(OC2CCN(Cc3ccccc3OC(F)F)CC2)c1	·	0.9	·	0	·
CCN1CCN(Cc2ccc(NC(=O)Nc3ccccc3)cc2)CC1	-18	-0.5	-7%	5	0	Arbovirus anti repeat=-9
CCC(C)N=CC1=C(O)C(C(=O)OC)C(C)(C)CC1=O (configuration not stated)	-32	4.3	-1%	2	5
CCCCCCOC(=O)NCC(O)c1ccccc1 (configuration not stated)	-29	-0.9	-5%	?	-3
CCOc1ccc(S(=O)(=O)Nc2ccc(Cl)cn2)c(C)c1C	-31	-0.4	-8%	-1	-9
CCOC(=O)c1c(C)n(Cc2ccccc2)c2ccc(OCC(O)CN3C(=O)CNC3=O)cc12 (configuration not stated)	-7	5.5	8%	2	-19
CC(C)C(OC(=O)c1ccco1)C(=O)NCc1ccco1 (configuration not stated)	-15	0.0	1%	-13	-2
Cc1cc(C)cc(NC(=S)NC(=O)C2CC2)c1	·	1.1	·	-3	·
O=C(NCCCN1CCCC1=O)c1cn(-c2ccccc2)nc1-c1ccccc1	·	0.6	·	?	·
CC(=O)c1cccc(OCc2cc(C(=O)NC(C)Cc3cccnc3)no2)c1 (configuration not stated)	·	-0.2	·	?	·
CCOC(=O)C(C(=O)NCC1CCCO1)C1CCCCC1 (configuration not stated)	-13	2.0	-5%	-4	4
COC(=O)c1cc2sccc2n1CC(=O)N(C)c1ccccc1	·	-1.2	1%	-2	-10
O=C(NCc1ccc(F)cc1)C1CCCN(S(=O)(=O)c2cccc3nonc23)C1 (configuration not stated)	·	-1.7	·	0	·
COc1ccccc1NC(=O)c1ccc(COc2ccccc2OC)o1	7	3.8	-8%	4	3
Cc1cccc(CC2S/C(=N/c3cccc(C)n3)NC2=O)c1 (configuration not stated)	·	·	14%	6	·
CC(c1cccnc1)N(CCN(C)C)C(=O)Nc1ccc(Cl)c(Cl)c1 (configuration not stated)	-23	1.8	11%	3	11	Arbovirus anti repeat=1
O=[N+]([O-])c1cccc(S(=O)(=O)NCC2CCCO2)c1 (configuration not stated)	-23	-1.7	-2%	7	-9
COc1cccc(C2C(C#N)=C(N)N(N(C)C)C3=C2C(=O)CCC3)c1OC (configuration not stated)	·	-1.8	·	-2	·
COCCOC1CCN(C(=O)C2CCC(=O)N(CCc3cccc(F)c3)C2)CC1 (configuration not stated)	·	-0.7	·	2	·
O=C(COC(=O)Cc1ccc(Cl)cc1Cl)NCCC1=CCCCC1	-7	1.7	9%	7	2
O=C1CN(C(=O)COc2ccccc2)CCN1	·	2.1	4%	-1	6	Arbovirus anti repeat=5
O=C(NC1CCN(Cc2ccccc2)CC1)C1CCN(c2nnc(-n3cccc3)s2)CC1	-23	-0.2	-5%	7	7	Arbovirus anti repeat=9
O=C(Nc1cccc(C(F)(F)F)c1)C(Sc1cccc[n+]1[O-])c1ccccc1 (configuration not stated)	-22	-0.5	-1%	?	3
CCOC(=O)C1CCN(CC(O)COCc2ccccc2)CC1 (configuration not stated)	·	2.2	·	8	·
CC/C(C)=N/Nc1cccc([N+](=O)[O-])c1	-29	-1.9	?	90	-29
CCOc1ccccc1CNCCO	-14	0.2	-20%	0	7
COc1ccc(NC(=O)COC(=O)Cc2cccs2)cc1OC	·	-4.1	·	1	·
C=CCN(CC=C)C(=O)CCc1nnc(CCc2c[nH]c3ccccc23)o1	·	0.3	0%	1	-11
COc1cc(NC(=O)C2CCCO2)c(C(=O)O)cc1OC (configuration not stated)	-67	4.0	6%	-3	2
O=C(Cc1c(F)cccc1Cl)Nc1ccc(-n2cnnn2)cc1	·	0.4	-7%	10	5
O=C1Nc2ccccc2C1Cc1ccccc1 (configuration not stated)	·	1.0	-6%	2	·
COc1ccc(CS(=O)c2nc(C)cc(C)c2S(C)(=O)=O)cc1 (configuration not stated)	·	1.5	1%	-2	0
CCOC(=O)c1ccc(CNC(=O)Cn2nnc(-c3ccccc3)n2)o1	·	-0.3	-2%	-8	0
COc1cccc(/C=C2\N=C(SC)SC2=O)c1OC	-11	-4.7	3%	10	1	Arbovirus anti repeat=-4
COc1cc2cccc(OC)c(=O)c2c(OC)c1OC	·	-2.0	-2%	3	-2	Arbovirus anti repeat=0
CC(C)Nc1ncnc2c1cnn2-c1ccccc1	-22	-1.3	18%	-9	10
NC(=O)Cn1nc(-c2ccccc2)nc1-c1ccccc1	·	0.8	·	-8	·
CCC(=O)Oc1ccc2c(C)cc(=O)oc2c1C(=O)CC	·	5.2	15%	-2	·
CC(C)N1CCC(N2CCN(CCCn3cccn3)CC2CCO)CC1 (configuration not stated)	·	0.9	-6%	-4	3
Cc1ccccc1S(=O)Cc1ccc(C(=O)NCCN2CCOCC2)o1 (configuration not stated)	·	0.0	·	-8	·
CCOc1ccc(C(=O)Nc2cccc(C(=O)O)c2C)cc1Cl	-28	-2.1	4%	-10	-8
CCOc1ccc(C(=O)c2cc([N+](=O)[O-])ccc2Cl)cc1	-31	5.4	12%	0	-10
CCOC(=O)c1ccccc1NS(=O)(=O)c1ccc(OC)cc1	-26	-0.9	-1%	-5	-19
O=C1CC(c2ccco2)=Nc2ccccc2N1	3	-1.2	1%	6	-5
COC(=O)c1ccc(NC(=O)CNc2ccccc2)cc1	·	1.4	2%	0	-4
CC(=O)N1CCCSC1=Nc1ccccc1	·	0.8	2%	2	1
O=C(NCc1ccncc1)C1CCCN(S(=O)(=O)c2ccc(Br)cc2)C1 (configuration not stated)	·	-0.3	·	-10	·
CCCN1C2CCCC1CC(NC(=S)Nc1ccc(OC)cc1)C2 (configuration not stated)	·	0.0	-2%	1	1
O=C(c1ccc2nc[nH]c2c1)N1CCN(c2ncc(C(F)(F)F)cc2Cl)CC1	·	4.8	·	9	·
O=S(=O)(Nc1nc2ccccc2nc1Cl)c1ccc2c(c1)OCCO2	·	3.4	-11%	-7	13
COc1ccc(-n2c(/C=C3\C(=O)Nc4ccccc43)nc3ccccc3c2=O)cc1	·	1.8	7%	1	-3
Cc1ccc(Cn2nnc3c(=O)n(CC(=O)N4CCCCC4)cnc32)cc1	-32	-5.0	-1%	-6	12
COC(=O)c1cccc(NC(=O)CC2C(=O)NCCN2C(=O)Nc2ccccc2)c1 (configuration not stated)	·	1.8	·	?	·
COc1ccc(C(C)NC(=O)c2ccc(Br)cc2)cc1OC (configuration not stated)	-23	1.6	-4%	1	-5
CC1=NN(c2ccccc2)C(=O)/C1=C/c1cn(C)c2ccccc12	·	37*	0%	-2	·
Cc1ccc2nc(-c3ccc(NC(=O)C(C)Sc4nncs4)cc3)sc2c1 (configuration not stated)	·	4.2	·	64	·
(further entries)
SMILES	YopH PTP inh	RecA splice inh	Mtb H37Rv	Mtb betalactam	Arbovirus anti	others
CCOCCCNC(=O)c1cc2c(=O)n(CC)c3ccccc3c2s1	·	-1.1	·	-4	·
CCc1c(C)nc(SCC(=O)NNC(=O)c2ccco2)[nH]c1=O	·	-4.5	·	6	·
CC[C@H](C)C1NC(=O)[C@H](CC(=O)O)NC(=O)c2cc([N+](=O)[O-])cc(I)c2NCCC(C(N)=O)NC1=O (some centres not stated)	6	5.2	-2%	-8	-1
O=C(CCCn1c(=S)[nH]c2cc3c(cc2c1=O)OCO3)N1CCN(c2ncccn2)CC1	-2	-0.9	2%	-10	3
COc1ccccc1C(=O)NC(=O)COC(=O)C1CC1C (configuration not stated)	·	2.9	·	-3	·
N/C(Cc1ccc(Cl)cc1Cl)=N\OC(=O)c1ccccc1	·	5.5	10%	5	8
C=CCn1c(=O)n(C(=O)OCC)c2cc(Br)ccc21	·	1.0	-2%	-9	-3
CCn1c(CNC(=O)c2ccccc2Cl)cc2ccccc21	·	-3.6	·	6	·
O=S(=O)(NCCc1ccccc1F)c1cccc(S(=O)(=O)N2CCOCC2)c1	-36	0.5	16%	-2	-2
O=C(Nc1ccc(F)cc1)c1cccc(N2C(=O)C3C4C=CC(C5CC45)C3C2=O)c1 (configuration not stated)	·	2.4	·	?	·
CC(=O)c1cccc(NC(=O)CN2C(=O)C3C4C=CC(C4)C3C2=O)c1 (configuration not stated)	-24	2.5	0%	10	-1
CC1=C(O)C(=O)OC1c1c(Cl)cccc1Cl (configuration not stated)	·	0.7	-6%	-7	·
COc1ccccc1C/C(N)=N/OC(=O)COc1ccc(C)cc1C	-31	9.9	14%	?	·
CC(=O)N1CCN(C(=O)c2ccc(S(=O)(=O)Nc3cccc(C(F)(F)F)c3)cc2)CC1	·	-2.6	·	0	·

Compounds from the list above with fluorine (13):
SMILES	YopH PTP inh	RecA splice inh	Mtb H37Rv	Mtb betalactam	Arbovirus anti	others
CCC(=O)N1CCN(c2cc(NCC3CCCO3)c(F)cc2[N+](=O)[O-])CC1 (configuration not stated)	·	3.5	76%	-6	3
CC(NC(=O)Cn1nc(C(F)(F)F)c2c1CCC2)c1ccccc1 (configuration not stated)	19	4.1	8%	-12	-5
Fc1cc(F)c(F)c(SCCc2ccncc2)c1F	-5	2.2	6%	2	5
N#CC(=C=[N-])c1nc2ccccc2nc1-[n+]1cccc(NC(=O)c2ccc(F)cc2)c1	·	1.2	0%	0	·
COCCNC(=O)c1cccc(OC2CCN(Cc3ccccc3OC(F)F)CC2)c1	·	0.9	·	0	·
O=C(NCc1ccc(F)cc1)C1CCCN(S(=O)(=O)c2cccc3nonc23)C1 (configuration not stated)	·	-1.7	·	0	·
COCCOC1CCN(C(=O)C2CCC(=O)N(CCc3cccc(F)c3)C2)CC1 (configuration not stated)	·	-0.7	·	2	·
O=C(Nc1cccc(C(F)(F)F)c1)C(Sc1cccc[n+]1[O-])c1ccccc1 (configuration not stated)	-22	-0.5	-1%	?	3
O=C(Cc1c(F)cccc1Cl)Nc1ccc(-n2cnnn2)cc1	·	0.4	-7%	10	5
O=C(c1ccc2nc[nH]c2c1)N1CCN(c2ncc(C(F)(F)F)cc2Cl)CC1	·	4.8	·	9	·
O=S(=O)(NCCc1ccccc1F)c1cccc(S(=O)(=O)N2CCOCC2)c1	-36	0.5	16%	-2	-2
O=C(Nc1ccc(F)cc1)c1cccc(N2C(=O)C3C4C=CC(C5CC45)C3C2=O)c1 (configuration not stated)	·	2.4	·	?	·
CC(=O)N1CCN(C(=O)c2ccc(S(=O)(=O)Nc3cccc(C(F)(F)F)c3)cc2)CC1	·	-2.6	·	0	·
